Assay outcomes deposited in PubChem BioAssay by National Center for Advancing Translational Sciences (NCATS).
nsP2pro inh: Primary qHTS for inhibitors of NSP2Pro chikungunya virus (CHIKV). FRET peptide cleavage, nsP2pro, fluorescence 1 h. Potency, µM (highest dose often 24.9 µM), for the others: top-dose activity change, negative = inhibition, hits mostly inhibitors. 1.1% of 31,000 active; active means well fitted inhibition curve with a large enough effect; inconclusive means small, poorly fitted or top-dose-only effect; inactive means no such curve, though single readings can be large or run the other way; also: nearly all actives have a fitted effect of over 60% in size; a reference inhibitor and vehicle were the controls
* = called active by the depositor; i = inactive; u = inconclusive; & = joins results of further samples; [ ] = dose if it differs, or a comment. % is scaled to controls: 0 for no effect and ±100 for the full control effect; potency is read from the fitted curve at half-maximal effect.

SMILES	nsP2pro inh
COC1=Cc2c(nc3n(c2=O)C(C)C(=O)NC3(O)C(C)C)OC=C1 (stereo unspecified)	u
O=C1c2cc(N3CCOCC3)nc(-c3cccc(CO)c3)c2CN1c1ccccc1	i
Cc1c(C(=O)NCC2CCCO2)[nH]c2c1C(=O)CCC2 (stereo unspecified)	-3.6%
CCc1ccc(NC(=O)C2CCCN(c3nnc(C)c4c(C)n(-c5ccccc5)nc34)C2)cc1 (stereo unspecified)	-1.5%
O=C(CCC1CCCN(Cc2ccc(-c3ccccc3)cc2)C1)N1CCOCC1 (stereo unspecified)	0.1%
NC(=O)C1CCN(c2nc(-c3ccccc3Br)cs2)CC1	-2.2%
Cn1ncc2c(N3CCN(S(N)(=O)=O)CC3)nc(C3CCCC3)nc21	i
CCN1CCC2(CCC1=O)CN(Cc1ccc(C)c3ccccc13)CCN2C (stereo unspecified)	i
CCCSc1ncc(Cl)c(C(=O)NCc2ccc(C)cc2)n1	17.9%
O=C(Nc1ccc(Br)cc1)c1ccc(F)c(S(=O)(=O)N2CCCc3ccccc32)c1	-11.1%
COc1ccccc1CNC(=O)c1nn(CC2CC2)c2c1CNCC2	-3.8%
COc1ccccc1N1CCN(c2ncc3c(n2)CCN(Cc2ccc(C)s2)C3)CC1	-34.7%
Cc1ccc(CNC(=O)C2CCCN(S(=O)(=O)c3ccc4c(c3)oc(=O)n4C)C2)cc1 (stereo unspecified)	-16.6%
CCN(c1ccccc1)S(=O)(=O)c1nnc(NC(=O)C2CCCCC2)s1	-14.6%
COc1ccccc1CC(=O)Nc1ccc2nc(Nc3cccc(C(F)(F)F)c3)cc(C)c2c1	28.6%
COCCNc1ccc2cc(S(=O)(=O)N3CCCCC3)ccc2n1	-2.1%
O=C(c1ccccc1)c1ccc2nc(N3CCN(c4ccc(F)cc4)CC3)c3nncn3c2c1	-19.3%
Cc1nn(CC(=O)N2CCC3(CCCN(C)CC3)CC2)c(=O)c2ccccc12	1.1%
CCc1ccc2oc(=O)cc(CN3CCN(c4ccccc4F)CC3)c2c1	-3.5%
CC(=O)OC1CCC2(C)C(CCC3(C)C2CC=C2C4C(C)C(C)CCC4(C)CCC23C)C1(C)C(=O)O (stereo unspecified)	1.21µM*
CCc1ccccc1NS(=O)(=O)c1ccc2c(c1)CCCN2C(=O)C1CCC1	-22.9%
COc1ccc(Cn2ccnc2SCC(=O)Nc2ccc3c(c2)OCO3)cc1	-28.7%
CC(/C=C1\SC(=S)N(CC(=O)O)C1=O)=C\c1ccccc1	-26.1%&11.3%
CCOc1ccc(CCNC(=O)c2ccc3ccccc3n2)cc1OCC	-5.5%
COc1cc2c(cc1-c1ccc(CO)cc1)NC(=O)C21CCN(C)CC1	0.9%[39.2 µM]
O=C(O)CC1CCCCN(Cc2ccccc2)C1=O (stereo unspecified)	-9.5%
Cc1cccc(-c2c3c(=O)n(C)c(=O)n(C)c3c3c(C)nc4ccccc4n23)c1	0.6%
CCCC(C(=O)OCCN(CC)CC)(c1ccccc1)c1ccccc1	-2.0%
COc1ccc(CN2CCCC3(C2)CN(C)C(=O)O3)cc1C(=O)O (stereo unspecified)	-4.7%
COc1ccc(C(=O)Nc2cc(NC(=O)c3ccco3)ccc2OC)cc1Cl	-13.1%
COc1ccc(OC)c(NC(=O)C(Cc2ccccc2)NS(=O)(=O)c2ccc3c(c2)CCC(=O)N3)c1 (stereo unspecified)	-12.4%
COc1ccc(CCNC(=O)CCCCCn2c(=O)[nH]c3cc(OC)c(OC)cc3c2=O)cc1OC	-15.0%
C=C(C)C1CCC2(C(=O)O[C@@H]3O[C@H](CO[C@@H]4O[C@H](CO)[C@@H](O)[C@H](O)[C@H]4O)[C@@H](O)[C@H](O[C@@H]4O[C@@H](C)[C@H](O)[C@@H](O)[C@H]4O)[C@H]3O)CCC3(C(=O)O)C(CCC4C5(C)CCC(O)C(C)(C)C5CCC43C)C12 (stereo partly specified)	-13.7%[5.1 µM]
CS(=O)(=O)N(C1CCOCC1)C1CN(S(=O)(=O)c2ccccc2)C1	i
Cn1c(C(=O)N2CCCC(C(=O)N3CCN(c4ccccc4)CC3)C2)cc2sccc21 (stereo unspecified)	-16.9%
CCOc1ccc(CN2CCCC(CCC(=O)Nc3ccccc3F)C2)cc1CO (stereo unspecified)	1.9%
COCCN1Cc2nc(-c3ccsc3)ccc2OCC1=O	-8.0%[39.2 µM]
O=C(c1ccncc1)N1CCCC(CN2CCCC2)CC1 (stereo unspecified)	-7.4%
O=C1CCN(C(=O)[C@@H]2CCCN2C(=O)Nc2ccccc2)CCCCCCN1	i
O=c1n(-c2ccncc2)nc2n1CCN(Cc1ccsc1)C2	i
CN(Cc1ccc(OC(F)(F)F)cc1)Cc1cccc(C(F)(F)F)c1	-7.7%
Cc1ncc(C(=O)N2CCC3(CC(=O)NC3=O)C2)c(-c2ccccc2)n1 (stereo unspecified)	-3.3%
COC(=O)Nc1nc2ccc(Sc3ccccc3)cc2[nH]1	-5.1%
Cc1cc(Nc2cc(CN3CCOCC3)c3nc(C)c(Cc4ccc(Cl)cc4F)n3n2)n[nH]1	198.7%[activator]
Cc1ccc(-c2cn3cccnc3n2)cc1NC(=O)Cc1ccccc1	-15.5%
CN(C)CCCNc1ccc(NC(=O)c2cccs2)cn1	-7.2%
COC(=O)C1=C(C)NC(C)=C(C(=O)OC(C)C)C1c1cccc2nonc12 (stereo unspecified)	-2.4%
COc1ccccc1CNC(=O)c1oc2ccc(S(=O)(=O)N3CCCCC3)cc2c1C	-13.6%
O=C(Nc1ccc(-c2nc3ccccc3[nH]2)cc1)c1ccncc1	-5.1%
O=C(NCc1ccc(F)cc1)[C@@H]1C[C@H](c2ccc(F)cc2)N([S+](=O)([O-])C2CC2)C1	i
CCC[C@@H]1C[C@@H](C(=O)N[C@@H]([C@H]2O[C@H](SC)[C@H](O)[C@@H](O)[C@H]2O)[C@H](C)Cl)N(C)C1	9.4%&9.7%
CCN(CC1CCCN(CCc2cccc(OC)c2)C1)C(=O)CSC (stereo unspecified)	i
COc1cc(O)c(C(CC(=O)N2C[C@H](C)C[C@H](C)C2)c2ccc3c(c2)OCO3)c(OC)c1 (stereo partly specified)	-5.1%[39.2 µM]
CC(Nc1nc(-c2ccccc2C(F)(F)F)nc2ccccc12)c1ccc(-c2cccc(C(F)(F)F)c2)cc1 (stereo unspecified)	-8.8%
COc1ccc(-c2nnc3n2CCN(C(=O)c2ccc(Cl)nc2)C3)cc1	1.0%
COc1cccc(CNc2ccc(S(=O)(=O)Nc3ncccn3)cc2)c1O	i
CC(C)OCCCN1C(=O)c2[nH]nc(-c3ccccc3O)c2C1c1cccc(OCc2ccccc2)c1 (stereo unspecified)	7.2%
COc1ccccc1-c1nnc2n1N=C(c1ccc(OC(F)F)c(OCC3CC3)c1)CS2	-5.3%
CC1CCC2(C(=O)O)CCC3(C)C(=CCC4C5(C)CCC(O)C(C)(C)C5CCC43C)C2C1C (stereo unspecified)	1.8%
Cc1ccc(NS(=O)(=O)c2cc3c(cc2-c2ccco2)NC(=O)CO3)cc1C	i

Continuation:
SMILES	nsP2pro inh
O=C(CCn1c(=O)c2ccccc2n(Cc2ccc(F)cc2Cl)c1=O)NCc1ccc2c(c1)OCO2	-10.8%
FCOC(C(F)(F)F)C(F)(F)F	0.1%
Cc1ccccc1Cc1c(C)nc2nc(SCC(=O)N(C)c3ccccc3)nn2c1C	-8.7%
COc1ccc(/C=C/C(=O)Nc2ccc3nc4c(c(Nc5ccccc5OC)c3c2)CCCC4)cc1	u
O=C(NCCc1csc2nc(-c3ccccc3F)nn12)c1ccco1	-13.2%
CC(=O)O[C@@H]1CC2C(C)(C)C(=O)C=C[C@]2(C)C2CC[C@]3(C)C(=CC(=O)O[C@H]3c3ccoc3)[C@@]21C (stereo partly specified)	1.6%
O=C(Cc1ccccc1F)N1CC2CC(C1)[C@H]1CCCC(=O)N1C2 (stereo partly specified)	4.8%
CC(=O)Nc1sc2c(c1-c1nc3ccccc3o1)CCN(C(C)C)C2	i
CC1=CCC[C@@H]2[C@@](C)(CCc3ccoc3)[C@H](C(=O)O)CC[C@@]12C	-23.9%
FC(F)(F)c1ccc(N2C3CCC2CN(Cc2ccc(-c4cccs4)cc2)C3)cc1	i
O=C(Nc1nnc(-c2ccco2)o1)c1ccc(Cl)c(Cl)c1	-12.8%
O=C1CCN(C(=O)c2ccco2)CCCC(C(=O)NCc2ccccc2)CCN1 (stereo unspecified)	-2.3%
NC1(C(=O)O)CC1	-24.7%
CC(=O)N1c2ccc(S(=O)(=O)NCC3CCC(C(=O)Nc4cc(C)ccc4C)CC3)cc2CC1C (stereo unspecified)	66.8%[activator]
O=S(=O)(c1ccc2c(c1)OCCO2)N1CCN(S(=O)(=O)c2ccc3nc(Cl)c(Cl)nc3c2)CC1	i
Cc1ccc(-c2nc3ncccc3o2)cc1NC(=O)c1ccc(-c2cccc(Cl)c2C)o1	-9.6%
Cc1nc2ccc(CN(C)c3ccc(C(=O)N[C@@H](CCC(=O)O)C(=O)O)s3)cc2c(=O)[nH]1	-16.9%&-8.7%
CON(C)C(=O)N1N=C(c2cc(F)ccc2F)S[C@@]1(CCCN)c1ccccc1	-7.8%
O=C(NCCO)C(=O)NCC(c1ccc2c(c1)OCO2)N1CCOCC1 (stereo unspecified)	-11.0%
COc1ccc(-c2nc3c(C)cccc3cc2CN2CC[C@@H](O)C2)cc1	-14.4%
O=C(O)c1cc(=O)c2c3nc4ccccc4oc-3cc(=O)c2[nH]1	-12.4%
CNC(=O)c1cc(C2CC2)nc2c1c(C1CCN(C(=O)Cc3ccc(OC)cc3)CC1)nn2C	i
CCOc1cc(-c2nnc(SCC(=O)NCc3ccc(C)cc3)nc2-c2ccc(OC)c(OCC)c2)ccc1OC	u
COc1ccc(-c2nc3c4ccccc4n(CC(=O)N4CCN(c5ccccc5OC)CC4)c(=O)n3n2)cc1	-13.6%
CCCc1cc(=O)n2[nH]c(NC(=O)c3ccc(C(C)(C)C)cc3)nc2n1	-10.3%
C=CCNc1oc(C2CCCC2)nc1C#N	-4.5%
COc1cc(-c2ccno2)ccc1S(=O)(=O)N1CCN(c2ccc(C(C)=O)cc2)CC1	-13.5%
CC(Oc1ccccc1F)C(=O)NCC1(N2CCOCC2)CCCCC1 (stereo unspecified)	-21.6%
CCn1ccnc1CN(C)Cc1cn(-c2ccccc2C)nc1-c1ccc(OC)c(F)c1	i
CCCCCCCCCCCCCCCCCCO	-9.9%
Cc1ccc(-n2[nH]c(C)c(N=Nc3cccc(-c4cccc(C(=O)O)c4)c3O)c2=O)cc1C	219.7%[activator]
Cc1cccc(/C=N/Nc2cc(N3CCOCC3)n3nc(-c4ccncc4)cc3n2)c1	105.9%[activator]
COC(=O)N(C)Cc1cccc(N2CCN(C(c3ccccc3)c3ccccc3)CC2)c1	-7.7%
CC1CCN(S(=O)(=O)c2ccc3c(c2)oc(=O)n3CC(=O)O)CC1	-21.2%
CCOC(=O)c1cc2c(=O)n3ccccc3nc2n(CC(C)C)c1=NC(=O)COc1ccc(Cl)cc1	-15.3%
Cc1ccc(NS(=O)(=O)c2ccc3c(c2)C(Cl)(Cl)C(=O)N3)cc1C	u
C=C1C(O)C(O)C2(CC3C(C)=CCC4C(C)(CO)CCCC34C)OC2C1O (stereo unspecified)	38.2%[activator]
O=C(CN1C(=O)C(c2ccc(F)cc2)=NC12CCCCCC2)Nc1ccccc1Cl	-4.4%
CC(C)Oc1ccc(CNC(=O)c2cnc3sc(N4CCCCCC4)nn3c2=O)cc1	-29.8%
O=C(c1cc(-c2ccc(F)cc2)n[nH]1)N1CCC(OCC2CC2)C1 (stereo unspecified)	3.4%
O=C1OC2(c3cc(Br)c(O)cc3Oc3c2cc(Br)c(O)[c]3[Hg])c2ccccc21 (stereo unspecified)	336.0%[activator]
Cc1nc(N2CCOCC2)c2nc(-c3ccccc3)n(CCN3CCOCC3)c2n1	u
O=C(Nc1ccc2oc(-c3ccc4ccccc4c3)nc2c1)c1cc(Br)ccc1Cl	-25.9%
Cc1cc(NS(=O)(=O)c2ccc(NC(=O)Cc3ccccc3)cc2)no1	-6.3%
FC(F)OC(Cl)C(F)(F)F (stereo unspecified)	-2.1%
CC1OC2OC3C(OCC(O)C3O)OC(=O)C34CCC(C)(C)CC3C3=CCC5C6(C)CC(O)C(OC7OC(CO)C(O)C(O)C7OC7OCC(OC(=O)CC(C)(O)CC(=O)OC1C(OC1OCC(O)C(O)C1O)C2O)C(O)C7O)C(C)(CO)C6CCC5(C)C3(C)CC4O (stereo unspecified)	-5.5%[10 µM]
C=C1C[C@]23C[C@H]1[C@@H](O)C[C@H]2[C@@]12C=C[C@H](O)[C@@](C)(C(=O)O1)[C@H]2[C@@H]3C(=O)O	-20.6%

This is a subset; rates above refer to the full screens.
